From PubChem
Rango dissoc inh: qHTS Assay for Inhibitors of RanGTP induced Rango (Ran-regulated importin-beta cargo) - Importin beta complex dissociation; AID 540253, 2011; Snurportin-1 (Homo sapiens) + GTP-binding nuclear protein Ran (Homo sapiens) + Importin …; Biochemical FRET Rango-importin beta, RanGTP-induced dissociation; 340,000 compounds, 0.071% hits; Potency, µM (titrated, usually from 46.1 µM), for inactives: at the highest dose activity change, negative = inhibition; active means falling FRET ratio curve, often poorly fitted, with flat reads before Ran was added; inconclusive means other falling curves, or compound fluorescence or quenching; inactive means flat or rising ratio curve;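 further: potency means the concentration at half of the fitted maximal effect; % of control where 0% means no effect; nearly all actives have a fitted effect of over 45% in size; -100% = wells without RanGTP and RCC1; the record marks most hits as doubtful in a second field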
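Compounds preincubate 5 min with complex of recombinant Rango and importin beta in PBS with 1 mM DTT. Ran (0.6 uM) loaded with 2 mM GTP plus 0.2 uM RCC1 starts dissociation; FRET is recorded 45 min later.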
GLA inh pH 4.5: qHTS Assay for Inhibitors of Human alpha-Galactosidase at pH 4.5 | AID 1467, 2008 | Alpha-galactosidase A (Homo sapiens), P06280 | activity change, negative = inhibition, % at 105 µM | purified enzyme, 4-MU-alpha-Gal fluorescence, pH 4.5 | 230,000 tested, under 10 active; inconclusive = small, poorly fitted or top-dose-only inhibition, or a rising curve; inactive = flat fitted curve, though single readings scatter; no compound was filed as active;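 further: 0% = full activity with enzyme and -100% = basal without enzyme; dose as in the result columns while the protocol names 77 µM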
Target sequence (P06280 whole entry, looked up): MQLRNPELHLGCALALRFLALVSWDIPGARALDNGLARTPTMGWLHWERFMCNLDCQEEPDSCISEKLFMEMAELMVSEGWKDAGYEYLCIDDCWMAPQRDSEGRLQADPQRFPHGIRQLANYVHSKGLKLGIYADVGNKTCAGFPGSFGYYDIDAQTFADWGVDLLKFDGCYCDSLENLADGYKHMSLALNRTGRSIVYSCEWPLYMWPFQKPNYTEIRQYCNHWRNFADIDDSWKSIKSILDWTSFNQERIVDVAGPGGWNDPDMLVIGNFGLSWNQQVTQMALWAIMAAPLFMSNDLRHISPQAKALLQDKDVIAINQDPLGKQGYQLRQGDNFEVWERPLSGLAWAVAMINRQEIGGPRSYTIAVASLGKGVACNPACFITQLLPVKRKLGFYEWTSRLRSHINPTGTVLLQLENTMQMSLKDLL
Rango-impB inh: qHTS Assay for Inhibitors of Rango (Ran-regulated importin-beta cargo) - Importin beta complex formation; Importin subunit beta-1 (Homo sapiens), Q14974; Potency, µM (top dose mostly 92.2 µM), without a hit: at the top dose inhibition of complex formation; Rango CFP/YFP FRET sensor + importin beta, 45 min; 340,000 compounds, 0.031% hits; active = rising FRET ratio curve, often small or poorly fitted; inconclusive = mostly compound fluorescence or quenching in the first reads; inactive = flat curves in all reads;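 further: potency means the concentration at half of the fitted maximal effect; 0% = DMSO wells and 100% = buffer wells lacking importin beta; nearly all actives have a fitted effect of over 15% in size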
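FRET biosensor Rango (snurportin 1 IBB between N-terminal EYFP and C-terminal Cerulean), 50 nM in PBS/1 mM DTT/0.02% Tween-20/0.1% BSA, preincubated 5 min RT with compound; 0.125 microM importin beta added, 45 min RT, CFP/YFP FRET ratio read.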
miR-21 FLuc: qHTS Assay for Modulators of miRNAs and/orActivators of miR-21. AID 2288, 2010. Potency, µM (titrated, usually from 38.3 µM), inactives show top-dose reporter change, positive = more light. HeLa miR-21 FLuc reporter, luciferase, 48 h. 340,000 tested, under 10 active; active = well fitted rising curve with a large enough effect; inconclusive = small, poorly fitted or top-dose-only effect; inactive = no such curve, though single readings can be large or run the other way;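 further: % of control where 0% means no effect; miR-21 action dims this reporter so a rising signal means less miR-21 action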
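HeLa miR-21-FLuc reporter line, endogenous miR-21; 2000 cells/well in DMEM/10% FBS; compound titration up to ~40uM final, 48 h, 37 degree Celsius; luciferase detection reagent, 15 min lysis, CCD luminescence.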
* = called active by the depositor; ? = inconclusive; / = no result given; & = joins results of further samples. Some of the compounds tested; the hit share may differ from the screen's.

SMILES	Rango dissoc inh	GLA inh pH 4.5	Rango-impB inh	miR-21 FLuc
O=C(OCN1C(=O)c2ccccc2C1=O)c1cccnc1SC(F)F	14%	/	-3.3%	0%
CC1(C)CC(=O)C(C=NCCN2CCN(C(=O)C34CC5CC(CC(C5)C3)C4)CC2)=C(O)C1	-3%	-7	4.1%	-9%
CCC(C)C(=O)Nc1nc(C)c(-c2csc(Nc3ccc(Cl)cc3)n2)s1 (stereo not given)	-14%	12	?	24%
O=C(CC1Oc2ccccc2NC1=O)NCCCN1CCN(Cc2ccccc2)CC1 (stereo not given)	-5%	-1	-1.3%	-14%
C/C(CC(=O)Nc1ccc(C)c(Cl)c1)=N\NC(=O)C1CCCCC1	1%	/	-2.7%	-7%
COc1cc(NC(=O)CSCc2ccc(Cl)cc2Cl)c(C(=O)O)cc1OC	21%	/	2.0%	1%
CCOc1ccc2nc3c(cc2c1)CN(CCOC)C(=NCCOC)S3	-23%	1	?	-2%
Cc1cc(NC(=O)COC(=O)C2CC(=O)N(c3ccccc3Cl)C2)no1 (stereo not given)	0%	/	-0.1%	1%
O=C(NCc1ccco1)c1c2c(nc3ccccc13)CCC2	?	1	?	-9%
CCN(c1ccccc1)S(=O)(=O)c1ccc(NC(=O)c2nc(S(C)(=O)=O)ncc2Cl)cc1	9%	/	0.0%	?
Cc1ccc(N(C(=O)c2snc(C(N)=O)c2N)C(C(=O)NCc2ccccc2)c2ccncc2)c(C)c1 (stereo not given)	-7%	/	-1.6%	4%
CNC[C@@H]1Oc2ccc(NS(=O)(=O)c3ccc(OC)cc3)cc2CC(=O)N([C@H](C)CO)C[C@@H]1C	13%	/	3.5%	/
O=C(C[C@@H]1C/C=C\CC[C@H](Cc2ccc(F)cc2)C(=O)OC[C@@H]2CCCN2C1=O)NCCO	6%	/	-2.6%	/
CCOc1ccc(C(=O)COC(=O)CC)cc1	?	3	?	-14%
CCc1cc2cc(C)c(C)cc2nc1SCC(=O)Nc1cc(C)on1	14%	0	-2.2%	-3%
COC(=O)C(Cc1ccc(O)cc1)NC(=O)C(C)Oc1ccccc1 (stereo not given)	7%	-1	-0.2%	2%
CCOc1ccc(Oc2nc(C)cc(OC)n2)nn1	4%	-2	0.7%	-9%
COc1cccc(NC(=O)C2CCN(S(=O)(=O)c3ccc4[nH]c(=O)oc4c3)CC2)c1	20%	/	-0.8%	0%
O=C(NCc1ccco1)c1ccc(-c2ccc(Cl)cc2)o1	5%	-1	0.8%	-17%
CN(CC(=O)Nc1ccc(Cl)c(C(F)(F)F)c1)C(=O)C1CSC2(C)CCC(=O)N12 (stereo not given)	8%	/	-4.1%	/
COc1ccc(C)cc1S(=O)(=O)N(CC(=O)O)c1ccc(C)cc1	-14%	-3	4.0%	-4%
Cc1ccc(CN2CCNC(=O)C2CC(=O)N(C)Cc2cnccn2)cc1 (stereo not given)	0%	/	1.1%	1%
NCCCCCCNS(=O)(=O)c1cccc2c(Cl)cccc12	6%	-4&-1&1	1.9%	/
COc1ccc(S(=O)(=O)N2CCCCC2)cc1NC(=O)C1CC(=O)N(c2ccc3c(c2)OCCO3)C1 (stereo not given)	4%	/	-0.6%	/
O=C(CCCN1C(=O)S/C(=C\C=C\c2ccccc2)C1=O)Nc1ccc(C(=O)O)cc1	5%	/	0.3%	5%
COC(=O)c1ccc2nc(NC(=O)C3CC3)sc2c1	10%	/	-0.2%	-42%
CCCCNC(=O)CSc1cc(=O)n(C)c2ccccc12	29%	-1	0.2%	-5%
Cc1ccccc1NC(=O)CCCN1C(=O)C2CC=CCC2C1=O (stereo not given)	31%	/	4.5%	-3%
Cc1ccccc1Cn1c2ccccc2c2cnn(CC(=O)N3CCN(c4ccccc4)CC3)c(=O)c21	16%	-9	-1.8%	-1%
Cc1ccc(S(=O)(=O)NCc2c(Cl)cccc2Oc2ccccc2)cc1	-23%	-3	5.1%	1%
O=S(=O)(c1ccc(Cl)cc1)N(CCCN1CCOCC1)Cc1cccs1	4%	-2	3.9%	4%
COc1ccc(/C=N/NC(=O)CCC(=O)Nc2ccc(Br)cc2)c(OC)c1	-3%	/	-3.5%	-1%
O=C1NC[C@H](Cc2ccccc2)N(C[C@H]2CCCN2C[C@H](Cc2ccc(O)cc2)N2C[C@H](Cc3ccc(O)cc3)N(CC3CCCCCC3)C(=O)C2=O)C1=O	-23%	/	3.1%	/
Cn1nnc2cc(C(=O)NC3CCCCC3)ccc21	25%	3	-1.1%	-35%
COc1ccc(-c2csc(NC(=O)CCCc3cccs3)n2)cc1	?	1	0.5%	0%
Nc1nc(Nc2ccccc2)nc(NCCO)c1[N+](=O)[O-]	0%	-14	2.1%	-10%
CC1=NN(C(=O)c2ccc(Cn3ccc([N+](=O)[O-])n3)cc2)C(O)(C(F)(F)F)C1 (stereo not given)	9%	6	0.4%	-4%
COC(=O)c1cc(C)c(C)cc1NC1OC(CO)C(O)C1O (stereo not given)	-3%	/	1.9%	/
CCOC(=O)C1CCN(C2=NC(=O)/C(=C/c3ccc(Cl)cc3)S2)CC1	-3%	/	0.3%	-3%
c1ccc2c(c1)CCOC2CNCCCN1CCCCC1 (stereo not given)	-25%	-1	?	-7%
Cc1n[nH]c(C)c1S(=O)(=O)N1CCN(C(=O)c2ccco2)CC1	-5%	7	-0.4%	-4%
Cc1ccc(-c2c(C(=O)N/N=C/c3ccco3)nnn2-c2nonc2N)cc1	-16%	/	-0.9%	-1%
CCn1c(C)cc(C(=O)COC(=O)c2ccccc2[N+](=O)[O-])c1C	-6%	/	-0.2%	/
CCOC(=O)c1cc2c(nc1NC(=S)Nc1ccccc1)CC(C)(C)OC2	1%	3	-3.0%	-7%
CC(C)(CNC(=O)c1ccc(NS(=O)(=O)c2ccc(F)c(F)c2)cc1)N1CCOCC1	-6%	/	-0.9%	/
O=C(C1CCCN(S(=O)(=O)c2cnc[nH]2)C1)N1CC(=O)N(CCc2ccccc2)C(=O)C1 (stereo not given)	-2%	-4	?	-1%
CCN(CC)CCNC(=O)c1ccc2c(c1)NC(=O)c1ccccc1S2	2%	/	-0.8%	2%
O=C(COc1ccccc1)Nc1nc(-c2cccnc2)cs1	-15%	/	-2.3%	/
NS(=O)(=O)c1ccc(NC(=O)CSc2nnc3n2CCCCC3)cc1	12%	/	-0.4%	/
O=C1C=CC(=Nc2cccc3c2C(=O)c2ccccc2-3)O1	?	/	?	/
Next records
SMILES	Rango dissoc inh	GLA inh pH 4.5	Rango-impB inh	miR-21 FLuc
C#CCNC(=O)C1=C[C@H](C(C)(C)C)C[C@H](OCCCCO)O1	1%	/	2.0%	/
O=C(COC(=O)c1cccc(OC(F)F)c1)NCC1CCCO1 (stereo not given)	9%	/	6.0%	/
Cc1sc2nc(CN3CCOCC3)[nH]c(=O)c2c1-c1ccccc1	-1%	-1	0.1%	-5%
CC(=O)N1CCC(Nc2ccc(C)cc2)CC1	6%	2	0.1%	-3%
CCc1nnc(NC(=O)c2ccc(S(=O)(=O)N3CCc4ccccc4C3)cc2)s1	-6%	3	-0.8%	-11%
COc1ccc2c(c1)CCc1c(C(=O)N3CCCCCC3)noc1-2	1%	-4	0.1%	-52%
CCOC(=O)Cn1cc(/C=N/NC(=O)CC#N)c2ccccc21	-6%	-5	-0.3%	0%
COc1ccc(NS(=O)(=O)c2ccc(OC)c(NC(=O)CNC(=O)c3ccc(OC)cc3)c2)cc1	13%	/	-0.5%	/
COc1ccc(C2C(C#N)=C(N)Oc3cccc(O)c32)cc1 (stereo not given)	?	/	?	0%
Cc1ccc(NC(=S)Nc2cccc3cnccc23)cc1C	1%	5	?	-16%

Sorted by number of heavy atoms (low to high): some entries from above
SMILES	Rango dissoc inh	GLA inh pH 4.5	Rango-impB inh	miR-21 FLuc
CC(=O)N1CCC(Nc2ccc(C)cc2)CC1	6%	2	0.1%	-3%
COc1ccc(C2C(C#N)=C(N)Oc3cccc(O)c32)cc1 (stereo not given)	?	/	?	0%
CCOC(=O)Cn1cc(/C=N/NC(=O)CC#N)c2ccccc21	-6%	-5	-0.3%	0%
Cc1sc2nc(CN3CCOCC3)[nH]c(=O)c2c1-c1ccccc1	-1%	-1	0.1%	-5%
CCc1nnc(NC(=O)c2ccc(S(=O)(=O)N3CCc4ccccc4C3)cc2)s1	-6%	3	-0.8%	-11%

Other compounds
SMILES	Rango dissoc inh	GLA inh pH 4.5	Rango-impB inh	miR-21 FLuc
Cc1ccc(C(=O)N/N=C/c2ccc(N3CCOCC3)cc2)c(C)c1	21%	5	-3.3%	-17%
O=C(CSc1cccc[n+]1[O-])Nc1ccc(Cl)cc1F	-1%	/	-0.1%	/
O=C(Cn1cc([N+](=O)[O-])ccc1=O)N1CCc2ccccc2C1	11%	/	-0.3%	/
Nc1cc(=O)[nH]c(SCCOc2ccccc2)n1	6%	9	-1.6%	-16%
O=C(Nc1cccc([N+](=O)[O-])c1)c1ccc2c(c1)OCCO2	0%	-7	-2.4%	-30%
CCC1(C)Cc2c(c(=O)n(-c3ccccc3)c3ncnc(N)c23)CO1 (stereo not given)	2%	-3	-0.6%	-7%
Cc1cc(-c2ccco2)n(CC(=O)NCc2ccccc2)n1	-7%	-3	0.2%	-4%
CCN(CC)C(=O)c1[nH]cnc1C(=O)N[C@@H](C)c1ccccc1	11%	/	0.1%	/
COc1ccc(N2CCN(C(=O)COC(=O)CCOc3ccccc3C)CC2)cc1	2%	/	?	/
CCOc1ccc(NC(=O)c2nn(C)cc2Br)cc1	20%	1	2.8%	-45%
Cc1cc(NC(=O)c2cc3n(n2)C(C(F)(F)F)CC(c2ccco2)N3)no1 (stereo not given)	5%	6	-0.9%	-11%
O=C(Nc1ccccc1)Nc1ccc(O)c2ccccc12	-22%	/	6.6%	/
CCOc1cccc(-c2cc(C(=O)N/N=C/c3ccc(OC)c(CN4CCOCC4)c3)c3ccccc3n2)c1	16%	-10	4.7%	7%
Cc1ccc(-n2ncc3c2CCCC3NC(=O)c2ccccc2N2CCOCC2)cc1C (stereo not given)	-16%	/	2.4%	10%
COc1ccc([N+](=O)[O-])cc1NC(=O)C(C)N(C)Cc1ccc(Br)cc1 (stereo not given)	0%	-8	-1.0%	3%
COc1ccc(CC(=O)NC2CC(C)(C)NC(C)(C)C2)cc1OC	?	/	4.8%	-4%
CCOC(=O)c1c(C2CC2)csc1NC(=O)CSCc1c(C)noc1C	0%	-3	0.6%	-11%
COc1ccc2c(c1)[nH]c1c(=O)n(CC3CCCO3)cnc12 (stereo not given)	1%	-6	0.9%	-23%
Oc1ccc(C(c2nnnn2C2CCCC2)N2CCc3ccccc3C2)cc1 (stereo not given)	1%	-14	0.3%	1%
CC(C)(C)NC(=O)C(c1cccs1)N(Cc1cccs1)C(=O)c1csnn1 (stereo not given)	0%	0	-4.2%	5%

Looked up by structure from the entries so far (2):
SMILES	Rango dissoc inh	GLA inh pH 4.5	Rango-impB inh	miR-21 FLuc
Cc1cc(NC(=O)c2cc3n(n2)C(C(F)(F)F)CC(c2ccco2)N3)no1 (stereo not given)	5%	6	-0.9%	-11%
COc1ccc2c(c1)[nH]c1c(=O)n(CC3CCCO3)cnc12 (stereo not given)	1%	-6	0.9%	-23%

Going on with the list:
SMILES	Rango dissoc inh	GLA inh pH 4.5	Rango-impB inh	miR-21 FLuc
CCC(C(=O)NC1CCCC1)n1c2ccccc2c2nc(=O)cc(C)n21 (stereo not given)	0%	/	-0.5%	/
Cn1c(=O)[nH]c(=O)c2c1nc(NCCc1ccccc1)n2CC(O)COc1ccccc1 (stereo not given)	8%	-1	-0.9%	-5%
CC(CN1C(C)CCCC1C)OC(=O)c1ccccc1Br (stereo not given)	-16%	/	0.8%	-2%
CCC(C)C(NC(=O)C1CCC(C)CC1)C(=O)Nc1ccc(OC)cc1 (stereo not given)	-11%	/	-2.2%	1%
Cc1nc(-c2ccc(S(=O)(=O)N3CCN(CCc4ccccc4)CC3)s2)cs1	2%	-6	-2.0%	5%
O=C(CCc1nc(-c2cccs2)no1)Nc1cnc2ccccc2c1	14%	-2	-3.3%	-17%
